Polio RdRp inh: poliovirus RNA polymerase inhibition. poliovirus polymerase elongation, fluorescence polarization; hits give low values. % elongation, % (compound at 16.7 µg/mL). 0.66% of 150,000 active; in the data active means % elongation below about 90%; further: some results filed as inactive read as strong as hits
Target sequence (P03300 1749-2209 limits assumed): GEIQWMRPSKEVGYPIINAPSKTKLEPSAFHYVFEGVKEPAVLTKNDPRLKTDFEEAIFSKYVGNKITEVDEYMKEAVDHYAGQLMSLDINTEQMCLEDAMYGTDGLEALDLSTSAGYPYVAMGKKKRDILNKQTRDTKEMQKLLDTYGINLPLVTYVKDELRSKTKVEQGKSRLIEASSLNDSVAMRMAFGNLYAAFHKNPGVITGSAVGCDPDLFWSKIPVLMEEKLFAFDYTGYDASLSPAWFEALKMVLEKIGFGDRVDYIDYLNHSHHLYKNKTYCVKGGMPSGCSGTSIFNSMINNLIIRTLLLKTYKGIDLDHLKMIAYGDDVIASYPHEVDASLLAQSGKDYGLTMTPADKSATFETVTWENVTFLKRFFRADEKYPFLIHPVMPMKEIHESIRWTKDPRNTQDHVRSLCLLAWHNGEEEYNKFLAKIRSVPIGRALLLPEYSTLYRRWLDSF
Polio RdRp inh intensity: also measured in Polio RdRp inh; calls as there; % elongation; measured here: total intensity read-out; formula for this scale not given here;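 total fluorescence in place of polarization; lower means less elongation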
* hit, by the source's call.

SMILES | Polio RdRp inh | Polio RdRp inh intensity
O=C(Cn1c(=O)n(-c2ccccc2)c(=O)c2ccc(C(=O)NCc3ccc4c(c3)OCO4)cc21)Nc1ccc(Br)cc1 | 103 | 104
COc1ccc(-c2noc(CN(C(=O)COc3cc(C)c(Br)c(C)c3)C(C)C)n2)cc1 | 109 | 107
COc1cc(OC)cc(-c2nc3nc(C)c(CCC(=O)Nc4ccc(F)cc4F)c(C)n3n2)c1 | 103 | 103
O=C(Cn1cc(S(=O)(=O)c2ccccc2)c(=O)c2cc3c(cc21)OCO3)Nc1ccccc1 | 102 | 103
Cc1ccc(CNC(=O)CN(c2cc(C)cc(C)c2)S(=O)(=O)c2c(C)noc2C)cc1 | 109 | 111
CC1=C(C(N)=O)C(c2ccc(F)cc2)n2nc(-c3ccccc3Cl)nc2N1 (centres undefined) | 104 | 94
O=C(CSc1oc(-c2ccco2)nc1S(=O)(=O)c1ccc(Br)cc1)c1ccc(Cl)cc1 | 104 | 105
CCC(C(=O)NC1CCC(C)CC1)n1nc(C)c2sc3ccccc3c2c1=O (centres undefined) | 115 | 115
COc1ccc(-c2[nH]ncc2C(=O)NCc2cccc(Cl)c2)cc1 | 112 | 110
Cc1ccc(CNC(=O)Cn2c(=O)n(-c3ccccc3)c(=O)c3c2c2cc(C)ccc2n3C)cc1 | 111 | 115
COc1ccc(CC(=O)N2CC(=O)Nc3ccc(Br)cc3C2c2ccc(F)cc2)cc1OC (centres undefined) | 101 | 94
Cc1cc(C)cc(NC(=O)CN2C(=O)c3ccccc3Sc3ccc(C(=O)N4CCCC4)cc32)c1 | 108 | 114
COc1cc(C(=O)Nc2ccccc2-c2nc(-c3ccccc3)no2)cc(OC)c1OC | 106 | 108
COc1ccc(CCNC(=O)C2COc3ccccc3C2)cc1OC (centres undefined) | 106 | 111
CCCNC(=O)C1CCN(c2cc(C)nc3c(-c4ccc(OC)c(OC)c4)c(C)nn23)CC1 | 106 | 111
COc1ccc(CCNC(=O)c2nn(C)c3c2CSc2ccccc2-3)cc1OC | 116 | 106
O=C(Nc1ccc(F)cc1)c1ccc2c(=O)n3c(nc2c1)CCCCC3 | 98 | 92
CCOc1ccc(-c2nnc(SCC(=O)NCCc3ccccc3)nc2-c2ccc(OCC)cc2)cc1 | 108 | 110
CCc1ccc(CNC(=O)CN2C(=O)c3cccnc3Oc3ccc(C)cc32)cc1 | 106 | 102
COc1cccc(-c2ccnc3c(-c4ccc(F)cc4)c(C)nn23)c1 | 111 | 112
CC(=O)Nc1ccc(NC(=O)c2nc(S(=O)(=O)Cc3ccc(F)cc3)ncc2Cl)cc1 | 101 | 105
COc1ccc(C2(CNC(=O)C(=O)Nc3ccccc3C)CCCC2)cc1OC | 109 | 110
CCn1c(=O)n(-c2cccc(Cl)c2)c(=O)c2sc3ccccc3c21 | 108 | 111
COc1ccc(S(=O)(=O)Nc2cccc(-c3ccc(N4CCC(C)CC4)nn3)c2)c(OC)c1 | 111 | 109
CCC(=O)N1CCc2cc(S(=O)(=O)NCCC(=O)Nc3ccc(C)cc3C)ccc21 | 107 | 111
Cn1c(=O)oc2cc(S(=O)(=O)N3CCCC(C(=O)NCCc4ccccc4)C3)ccc21 (centres undefined) | 108 | 116
O=C(CCCc1ccccc1)NC1CC(=O)N(c2cccc(F)c2)C1 (centres undefined) | 112 | 99
CCOC(=O)c1cc2c(=O)n3ccccc3nc2n(Cc2ccco2)c1=NC(=O)c1ccccc1Br | 105 | 100
CC(C)c1ccc(S(=O)(=O)NCc2ccc3c(c2)CCN3C(=O)c2ccccc2)cc1 | 108 | 111
COc1ccc2oc(=O)c(C(=O)Nc3cccc(C(=O)O)c3)cc2c1 | 102 | 108

One compound at a time, from the list above.
Shown for CCc1ccc(CNC(=O)CN2C(=O)c3cccnc3Oc3ccc(C)cc32)cc1 : Polio RdRp inh: 106; Polio RdRp inh intensity: 102
Shown for CCn1c(=O)n(-c2cccc(Cl)c2)c(=O)c2sc3ccccc3c21 : Polio RdRp inh: 108; Polio RdRp inh intensity: 111
Shown for CC(=O)Nc1ccc(NC(=O)c2nc(S(=O)(=O)Cc3ccc(F)cc3)ncc2Cl)cc1 : Polio RdRp inh: 101; Polio RdRp inh intensity: 105

Five entries already listed, arranged by heavy-atom count, smallest number first:
SMILES | Polio RdRp inh | Polio RdRp inh intensity
COc1ccc2oc(=O)c(C(=O)Nc3cccc(C(=O)O)c3)cc2c1 | 102 | 108
COc1ccc(CCNC(=O)c2nn(C)c3c2CSc2ccccc2-3)cc1OC | 116 | 106
CC(C)c1ccc(S(=O)(=O)NCc2ccc3c(c2)CCN3C(=O)c2ccccc2)cc1 | 108 | 111
CCOC(=O)c1cc2c(=O)n3ccccc3nc2n(Cc2ccco2)c1=NC(=O)c1ccccc1Br | 105 | 100
CCOc1ccc(-c2nnc(SCC(=O)NCCc3ccccc3)nc2-c2ccc(OCC)cc2)cc1 | 108 | 110

(list continues)
SMILES | Polio RdRp inh | Polio RdRp inh intensity
CNC(=O)C1CCC(Cn2c(=O)c3sccc3n(CC(=O)N3CCCC(C)C3)c2=O)CC1 (centres undefined) | 99 | 101
COc1ccc(CNC(=O)Nc2cn(CC(C)C)c(=O)c3ccccc23)cc1 | 60* | 70*
Cc1c(C(=O)OCC2CCCCC2)[nH]c2c1C(=O)CC(c1ccccc1Cl)C2 (centres undefined) | 108 | 112
COc1ccc(-n2nc(C(=O)N(C)c3cccc(C(F)(F)F)c3)c3c4ccccc4n(C)c3c2=O)cc1 | 114 | 108
Cc1ccc(NC(=O)C2CCCN(S(=O)(=O)c3c(C)n[nH]c3C)C2)c(C)c1 (centres undefined) | 102 | 101
CCCCCOc1ccc(/C=C/C(=O)Nc2sc(C)c(C)c2C(=O)OCC)cc1OC | 94 | 91
COCCSc1nc2c([nH]c3ccccc32)c(=O)n1-c1ccc(OC)c(OC)c1 | 114 | 102
CCCCNc1nc(Oc2ccc(=O)n(-c3ccccc3)n2)nc(N(CC)CC)n1 | 103 | 107
COc1cccc(Nc2sc(C(=O)c3ccc(Cl)cc3)c(N)c2C(=O)NCCc2ccc(OC)c(OC)c2)c1 | 113 | 114
CC(C)(C)C(=O)Nc1ccccc1C(=O)OCc1cc(=O)n2ccsc2n1 | 109 | 115
CCCCOc1ccc(-c2nn(-c3ccccc3)cc2C2NC(=O)NC(C)=C2C(=O)OC)cc1 (centres undefined) | 104 | 107
COc1ccc(OCC(=O)Nc2cc(-c3ccccc3F)nn2-c2ccccc2)cc1 | 107 | 108
CN1C(=O)Cc2cc(S(=O)(=O)N3CCN(c4cccc(C(F)(F)F)c4)CC3)ccc21 | 107 | 102
CCCNC(=O)C1CCC(Cn2c(=O)c3sccc3n(CC(=O)Nc3ccccc3C)c2=O)CC1 (centres undefined) | 106 | 112
COc1ccc(NC(=O)CN2C(=O)C(C)(C)c3cc(S(=O)(=O)N4CCCCC4)ccc32)cc1Cl | 110 | 100
COc1ccc(CNC(=O)CN2C(=O)CSc3ccc(S(=O)(=O)N4CCC(C)CC4)cc32)cc1 | 106 | 105
COc1ccccc1NC(=O)c1c(NC(=O)c2ccccc2Cl)sc2c1CCC2 | 100 | 112
COc1ccc(N2CCN(C(=O)CN3C(=O)COc4ccc(S(=O)(=O)N5CCC(C)CC5)cc43)CC2)cc1 | 103 | 105
CCOc1ccc(-c2nc3c(c(SCC(=O)N4CCCCC4)n2)Cc2cc(C)ccc2O3)cc1 | 103 | 107
CCOc1ccc(NC(=O)CCc2c(C)nc3nc(-c4cc(OC)cc(OC)c4)nn3c2C)cc1 | 103 | 105
O=C(c1ccc2c(Cl)c3c(nc2c1)CCCC3)N1CCN(c2ccc(Cl)cc2)CC1 | 108 | 111
CCOC(=O)C1CCN(C(c2cccc(F)c2)c2c(O)cc(C)n(CCOC)c2=O)CC1 (centres undefined) | 113 | 103
Cc1ccc(CNC(=O)C(=O)NCC(c2cccs2)S(=O)(=O)c2ccccc2)cc1 (centres undefined) | 101 | 107
Cc1cccc(Cn2ccn(Cc3ccc(Cl)cc3)c(=O)c2=O)c1 | 116 | 108
Cc1ccc2c(CC(=O)Nc3c(C(=O)c4ccc(F)cc4)oc4ccccc34)coc2c1 | 116 | 115
CSc1ccc(CCNC(=O)c2cc(C)nc3c2c(C)nn3-c2cccc(F)c2)cc1 | 111 | 113
CSCCC(NS(=O)(=O)c1ccc2c(c1)oc(=O)n2C)C(=O)NCc1ccc(F)cc1 (centres undefined) | 110 | 110
CCOC(=O)Cn1c(=O)n(C2CCCCC2)c2nc(-c3ccc(Cl)cc3)nc(C(N)=O)c21 | 112 | 110
COc1ccc(-c2nc3ccccc3s2)cc1NC(=O)c1ccc(F)cc1 | 102 | 102
O=C(CSc1nccn1Cc1ccc(F)cc1)NCc1ccccc1 | 111 | 106
CCSc1nc2sc3c(c2c(=O)n1-c1ccc(C)c(Cl)c1)CCN(C(C)=O)C3 | 105 | 109
Cc1ccc(C2=Nc3ccccc3N=C(c3ccc(F)cc3)C2)c(O)c1 | 109 | 107
CCOC(=O)c1ccc(NC(=O)c2c(-c3c(F)cccc3Cl)noc2C)cc1 | 115 | 117
CCc1ccc(NC(=O)C2CCN(S(=O)(=O)c3c(C)noc3/C=C/c3ccco3)CC2)cc1 | 111 | 109
CC(Sc1ncc(S(=O)(=O)c2ccc(C(C)C)cc2)c(N)n1)C(=O)Nc1ccccc1 (centres undefined) | 110 | 110
CC(=O)c1c(C)n(-c2ccc(C)cc2)c2ccc(OC(=O)COc3ccccc3)cc12 | 105 | 110
Cc1cccc(NC(=O)CSc2nccn2Cc2ccc(F)cc2)c1C | 111 | 111
CC(=O)N1c2ccccc2C(C)(c2ccc(C)cc2)CC1(C)C (centres undefined) | 103 | 105
C#CCn1c(C2CC(=O)N(c3ccc(OCC)cc3)C2)nc2ccccc21 (centres undefined) | 110 | 110
COc1ccc(CCN2C(=O)CN(C3CCCCCC3)C(=O)C2c2ccc(C)cc2)cc1OC (centres undefined) | 115 | 116
Cc1ccc(Cc2nc3ccccc3nc2SCC(=O)N2CCN(c3ccc(F)cc3)CC2)cc1 | 107 | 93
Cc1ccc(CNC(=O)CN(c2ccc(Cl)cc2Cl)S(=O)(=O)c2ccccc2)cc1 | 101 | 103
CNC(=O)c1ccc(CSc2nc3cccnc3n2Cc2cccc(F)c2)cc1 | 118 | 100
CCc1ccc(CNC(=O)c2ccc(CSc3nc4ccncc4n3Cc3ccccc3)cc2)cc1 | 108 | 110
COc1cccc(C(=O)c2sc3nc(-c4ccccc4)cc(C(F)(F)F)c3c2N)c1 | 81 | 232
CC(C)c1ccc(NC(=O)c2cnc3sc(N4CCOCC4)nn3c2=O)cc1 | 105 | 100
COc1cc2ccccc2cc1C(=O)Nc1ccc2oc(-c3ccc(Cl)cc3)nc2c1 | 104 | 110
COc1ccc(Nc2ncc(C(=O)N3CCN(c4cccc(Cl)c4)CC3)c3ccccc23)cc1 | 104 | 105
Cc1ccc(NC(=O)Cn2c(=O)n(Cc3ccc4c(c3)OCO4)c(=O)c3ccc(C(=O)NC4CCCCC4)cc32)c(C)c1 | 106 | 109
COc1cc(Cl)c(C)cc1NC(=O)c1cnn(-c2ccc(C)cc2)c1-n1cccc1 | 108 | 115
Cc1ccccc1CSc1nc2c([nH]c3ccccc32)c(=O)n1C | 106 | 107
CCOc1ccc(-c2cc3c(=O)n(Cc4nc(-c5ccccc5OCC)oc4C)ccn3n2)cc1Cl | 101 | 102
Cc1ccc(C2=Nc3ccccc3N(CC(=O)Nc3ccccc3F)C(=O)C2)cc1C | 111 | 115
CC(C)c1cccc(C(C)C)c1NS(=O)(=O)c1cccs1 | 106 | 107
O=C(NCCc1ccc(Cl)cc1)C1COc2ccccc2C1 (centres undefined) | 101 | 106
CCOC(=O)c1ccc(NC(=O)CCn2c(=O)oc3ccccc32)cc1 | 103 | 106
Cc1ccc(C)c(OCCn2c(C3CC(=O)N(Cc4ccc(F)cc4)C3)nc3ccccc32)c1 (centres undefined) | 110 | 118
COc1cc(C2C(C(=O)Nc3ccccc3C)=C(C)Nc3ncnn32)ccc1OCC(N)=O (centres undefined) | 98 | 105
COCc1cc(C)nc2sc3c(c12)NC(c1ccccc1C(=O)O)N(c1ccc(OC)cc1)C3=O (centres undefined) | 105 | 107
O=C(NC1CCCCC1)c1ccc(Cn2c(SCc3ccccc3F)nc3cccnc32)cc1 | 109 | 111

The results go on.
SMILES | Polio RdRp inh | Polio RdRp inh intensity
CC(C)OCCCn1c(=O)c2ccccc2n2c(-c3ccccc3F)nnc12 | 101 | 106
CCOc1ccc(CN(CCc2ccc3c(c2)OCO3)Cc2cc(OC)c(OC)cc2OC)cc1 | 101 | 106
COc1ccccc1CNC(=O)C(NS(=O)(=O)c1ccc2c(c1)CCN2C(C)=O)C(C)C (centres undefined) | 100 | 105
COc1ccc(Cn2c(=O)[nH]c3cc(C(=O)N4CCN(c5cc(Cl)ccc5C)CC4)ccc3c2=O)cc1 | 106 | 108
Cc1cccc(OCC(=O)Nc2ccc3nc(Nc4cccc(C(F)(F)F)c4)cc(C)c3c2)c1 | 99 | 103
CCCCNC(=O)c1ccc2c(c1)NC(=O)C(CS(=O)(=O)Cc1ccc(F)cc1Cl)N2 (centres undefined) | 139 | 161
CCC(C)NC(=O)CSc1nc2c(sc3ccccc32)c(=O)n1Cc1ccccc1Cl (centres undefined) | 109 | 114
Cc1ccc(C)c(C(=O)CSc2nc3cc(C(=O)NC4CCCC4)ccc3c(=O)n2CC2CCCO2)c1 (centres undefined) | 115 | 114
O=C(NCc1ccccc1F)C1CCCN(C(=O)N2CCOc3ccccc32)C1 (centres undefined) | 107 | 111

From PubChem

Not all compounds are listed, so the mix of outcomes need not match the whole.
